# Screening results as filed in PubChem BioAssay.
# RE007 growth inh: less growth of the S. pombe RE007 Vpr strain. S. pombe RE007 Vpr strain, BacTiter-Glo ATP luminescence, 24 h; control for the full effect not named in the record. Potency, µM (highest dose often 92.2 µM), for the others: at the highest dose activity change, negative = less growth. 360,000 tested, 0.21% active; active = well fitted falling curve with a large enough effect; inconclusive = small, poorly fitted or top-dose-only effect; inactive = no such curve, though single readings can be large or run the other way;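 note: % is set by controls: 0 for no effect and ±100 for the full control effect; nearly all actives have a fitted effect of over 50% in size; the assay follows cell death caused by Vpr and the record does not say whether a fall means rescue or toxicity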
#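 Fission yeast RE007 carrying one integrated HIV-1 vpr copy, seeded at OD 0.01 in PMG+AL medium with 23 nL pinned compound. Grown 24 h at 30 degrees; viability read by BacTiter-Glo luminescence after 5 min.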
# SARS PLP yeast: blocks SARS-CoV papain-like protease in a yeast assay; Potency, µM (titrated, usually from 32.9 µM), for the others: top-dose activity, positive = growth rescue; 330,000 tested, 0.19% active; S. cerevisiae expressing SARS-CoV PLpro, growth rescue; control for the full effect not named in the record; note: 0% is about no effect; nearly all actives have a fitted effect of over 55% in size; growth read by luminescence after 48 h
# Cruzain Triton: blocks cruzain activity in presence of Triton detergent | P25779 | purified cruzain, Z-FR-AMC fluorescence, 0.01% Triton | Potency, µM, without a hit: max response, negative = inhibition, most hits filed as inhibitors | 200,000 tested, 0.43% active | AID 1478; active = well fitted curve in the direction sought with a large enough effect; inconclusive = small, poorly fitted or top-dose-only effect, or another doubt; inactive = no such curve, though single readings can be large; an effect the other way counts as inactive or inconclusive;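 note: plate controls were neutral wells for no effect and buffer without enzyme for full effect; nearly all actives have a fitted effect of over 40% in size; top concentration of the series not given in the record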
# Target sequence (P25779 123-467 limits assumed): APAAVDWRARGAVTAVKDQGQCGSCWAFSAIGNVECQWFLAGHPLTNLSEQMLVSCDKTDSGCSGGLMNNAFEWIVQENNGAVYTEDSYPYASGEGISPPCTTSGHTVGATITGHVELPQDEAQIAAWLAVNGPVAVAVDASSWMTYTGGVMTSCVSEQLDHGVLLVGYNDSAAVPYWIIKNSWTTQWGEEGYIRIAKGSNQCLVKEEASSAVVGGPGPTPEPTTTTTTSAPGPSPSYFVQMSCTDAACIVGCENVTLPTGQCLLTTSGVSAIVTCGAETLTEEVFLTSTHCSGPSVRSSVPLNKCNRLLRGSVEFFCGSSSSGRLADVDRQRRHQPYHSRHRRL
#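 Purified cruzain (1.5 nM final) was preincubated with compounds for 15 min at room temperature in 100 mM sodium acetate pH 5.5, 5 mM DTT, 0.01% Triton X-100. Reaction started with 2 uM Z-FR-AMC; AMC fluorescence change over 60 s gave activity.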
# LASV entry inh: Lassa virus entry inhibition. Lassa virus pseudotype entry inhibition, cell reporter; control for the full effect not named in the record. Potency, µM (series often up to 37.9 µM), for inactives: at the highest dose activity change, negative = inhibition, most hits filed as inhibitors. 300,000 tested, 1.2% active. AID 540256; active means well fitted inhibition curve with a large enough effect; inconclusive means small, poorly fitted or top-dose-only effect, or effect the other way; inactive means flat fitted curve, though single readings scatter; tested in HEK293 cells; note: % is set by controls: 0 for no effect and ±100 for the full control effect; nearly all actives have a fitted effect of over 50% in size; luciferase read-out
# StopGo reporter: FMDV 2A StopGo reporter, luciferase signal. AID 1159524. Potency, µM (doses to about 57.9 µM), inactives show top-dose signal change, negative = less light. human cells with a luciferase reporter of 2A StopGo recoding; control for the full effect not named in the record. 410,000 tested, 1.2% active; active = well fitted falling curve with a large enough effect; inconclusive = small, poorly fitted or top-dose-only effect; inactive = no such curve, though single readings can be large or run the other way; tested in HEK293T cells; note: % is set by controls: 0 for no effect and ±100 for the full control effect; nearly all actives have a fitted effect of over 45% in size; luciferase light after 4 h
# Cruzain noTriton: inhibitors of Trypanosoma cruzi cruzain without detergent | P25779 | purified cruzain, Z-FR-AMC fluorescence, no detergent | Potency, µM, without a hit: max response, negative = inhibition, actives largely listed as inhibitors | 200,000 tested, 2.3% active; active = well fitted curve in the direction sought with a large enough effect; inconclusive = small, poorly fitted or top-dose-only effect, or another doubt; inactive = no such curve, though single readings can be large; an effect the other way counts as inactive or inconclusive;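 note: plate controls were enzyme without inhibitor for no effect and buffer without enzyme for full effect; nearly all actives have a fitted effect of over 40% in size; top concentration of the series not given in the record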
#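 Purified cruzain at 1.5 nM, pre-incubated 15 min with compound at room temperature in 100 mM sodium acetate pH 5.5, 5 mM DTT, 0.00005% Triton X-100. Reaction started with 2 uM Z-FR-AMC; AMC fluorescence increase over 60 s gives rate.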
# NS1 function inh: influenza NS1 inhibition | 270,000 tested, 0.4% active | S. cerevisiae slowed by influenza A NS1, growth recovery by OD600 | Potency, µM (top dose mostly 46.1 µM), for the others: top-dose activity, positive = more growth; note: actives are rising curves; nearly all actives have a fitted effect of over 50% in size
#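 Read-out: OD600 growth recovery of NS1-expressing budding yeast. Cells grown overnight at 30C in -URA glucose medium, washed, resuspended and diluted 1:100 in 2% galactose assay medium, pH 6.0. Same strain lacking NS1 served as positive control.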
# Marburg entry inh: Marburg virus entry inhibition; Marburg virus pseudotyped entry inhibition, cell reporter; control for the full effect not named in the record; about a third of the inactives were read at about 46 µM; Potency, µM (doses to about 37.8 µM), without a hit: top-dose activity change, negative = inhibition, most hits filed as inhibitors; 300,000 tested, 1.8% active; AID 540276; active = well fitted inhibition curve with a large enough effect; inconclusive = small, poorly fitted or top-dose-only effect, or effect the other way; inactive = flat fitted curve, though single readings scatter; tested in HEK293 cells; about a fifth of its hits are not listed in these tables; note: % is set by controls: 0 for no effect and ±100 for the full control effect; luciferase read-out
# An asterisk follows results filed as active; ? = inconclusive; / = no result given; & = joins results of further samples; [ ] = dose if it differs, or a comment. Unless noted, calls come from the whole dose curve; as a rule, active means well fitted rising curve with a large enough effect; inconclusive means small, poorly fitted or top-dose-only effect; inactive means no such curve, though single readings can be large or run the other way. Potency is the fitted concentration of half-maximal effect.
SMILES,RE007 growth inh,SARS PLP yeast,Cruzain Triton,LASV entry inh,StopGo reporter,Cruzain noTriton,NS1 function inh,Marburg entry inh
Cc1csc2c(SCC(=O)NNC(=O)C(Cl)Cl)ncnc12,14.4%,-1.2%,/,/,13.3%,/,-6.6%,/
COC(=O)C=C1CCC2C3CCC4=CC(=O)CCC4(C)C3C(=O)CC12C (stereo not drawn),-2.8%,/,/,?,14.0%,/,/,-6.6%[46.1 µM]
Nc1nc(-c2ccc([N+](=O)[O-])cc2)cc(=O)[nH]1,0.7%,/,/,17.3%[46.1 µM],14.8%,/,/,?
O=C1CC(NS(=O)(=O)c2cccnc2)CN1c1ccc(F)cc1 (stereo not drawn),-3.8%,1.6%,/,24.3%,-9.9%,/,/,1.3%
COc1ccc(S(=O)(=O)N2CCCC(C(=O)NCC3CCCO3)C2)cc1C (stereo not drawn),6.2%,3.3%,/,/,-3.6%,/,15.4%,-6.8%
CC(C)C[C@H](NC(=O)Nc1ccc(S(N)(=O)=O)cc1)C(=O)O,-1.5%,-0.3%,3.2%,3.6%,/,2.3%,-2.1%,18.7%
CC(CCc1ccccc1)NC(=O)CCCn1ncn2c(cc3occc32)c1=O (stereo not drawn),-2.4%,1.1%,/,/,-4.5%,/,1.2%,/
CN(C)/C=C1\N=C(c2ccc(Cl)cc2Cl)OC1=O,-13.5%,1.6%,-12.3%,-8.8%,58.2%[activator],-18.8%,-10.4%,?
COC(=O)C1=C(N)Oc2cc(C)n(Cc3ccco3)c(=O)c2C1c1cccc(Cl)c1 (stereo not drawn),2.2%,1.6%,2.7%,-21.4%,0.0%,-12.7%,-77.9%,?
O=C(CCC(=O)OCC(=O)c1ccc(Br)cc1)Nc1ccc(Br)c2cccnc12,-5.2%,2.2%,-0.7%,3.4%,-15.7%,?,5.5%,12.5%
CCc1cc2c(COC(=O)CCNS(=O)(=O)c3cccc(C(F)(F)F)c3)cc(=O)oc2cc1O,6.9%,-14.3%,/,-26.6%,-9.3%,/,/,?
O=c1[nH]nnc2c1cnn2-c1ccccc1,-5.7%,/,/,17.9%,3.5%,/,/,25.6%
Cc1nc2ccccn2c1C(=O)NCc1cccnc1,-3.2%,4.4%,-2.6%,19.4%,-10.8%,-0.6%,5.7%,22.5%
Cc1c(C=NCCOCc2ccccc2)cnn1C,-2.0%,-2.4%,4.2%,-11.6%,-9.3%,4.6%,7.1%,-8.3%
O=C1CSC(c2cn(-c3ccccc3)nc2-c2ccc3c(c2)OCCO3)N1CCN1CCOCC1 (stereo not drawn),-2.5%,-2.6%,-0.6%,-29.7%,-14.0%,?,-16.8%,-25.1%&-25.1%
CCc1ccccc1NC(=O)CN1C(=O)COc2ccc(S(=O)(=O)Nc3ccccc3)cc21,/,/,-6.3%,6.2%[46.1 µM],40.6%[activator],-24.7%,/,/
COc1ccc(NC(=O)Nc2cnccn2)cc1,-5.7%,-1.6%,/,/,46.2%[activator],/,-0.1%,/
O=C(c1ccccc1)c1ccc2cc(O)ccc2c1,?,-7.0%,/,?,20.7%,/,-61.5%,?
CC(C)C(OC(=O)c1nsc(Cl)c1Cl)C(=O)NC1CCCCC1 (stereo not drawn),31.0%,2.7%,/,-6.7%[46.1 µM],-15.8%,/,2.4%,9.7%[46.1 µM]
COc1ccc(Oc2c(OC)cc([N+](=O)[O-])c3ncccc23)cc1,30.0%,/,/,-31.8%,?,/,/,?
CCOC(=O)c1[nH]c2ccc(OC)cc2c1NC(=S)N1CCN(c2ccc(F)cc2)CC1,2.1%,9.6%,-5.7%,-18.7%,-21.1%,0.0%,-4.1%,?
COc1cccc(CN2CCN(C3CSCCSC3)CC2CCO)c1 (stereo not drawn),-0.4%,0.3%,/,-5.5%,-5.8%,/,1.3%,12.8%[46.1 µM]
COc1ccc(C(c2nnnn2CS(=O)(=O)c2ccc(C)cc2)N2CCN(c3ncccn3)CC2)cc1 (stereo not drawn),10.6%,-22.6%,-3.5%,-0.7%,-22.2%,?,11.6%,-1.4%
Cc1cccc(C)c1-n1ncc(C(=O)NCCN2CCOCC2)c1C1CCN(C(=O)OC(C)(C)C)CC1,/,/,-1.9%,26.0%[46.1 µM],-16.4%,-0.3%,/,/
N#CCCSc1ncnc2c1oc1ccccc12,1.4%,-1.8%,-3.7%,4.3%,13.4%,0.3%,-29.4%,0.5%
CCNS(=O)(=O)c1ccc(OC)c(C(=O)NC2CCCCC2)c1,7.0%,-0.3%,/,0.9%[46.1 µM],-0.4%,/,-2.7%,-1.2%[46.1 µM]
Cc1ccc(-c2nnn(CC(=O)NCC3CC3)n2)o1,7.5%,-1.3%,1.3%,26.4%,18.1%,-0.8%,4.6%,19.2%
Cc1nnc(OCc2nc3ccccc3n2C)c2ccccc12,-0.6%,7.1%,-3.3%,9.2%,-6.1%,-25.2%,-3.4%,18.0%
Cc1ccccc1-c1nc(-c2ccc(NC(=O)c3ccc(Br)o3)cc2)no1,3.4%,22.8%,-2.8%,-18.7%,-6.5%,?,-2.6%,0.2%
CN(Cc1nc(-c2ccccc2)no1)C1CCOCC1,-4.5%,0.6%,/,/,21.3%,/,6.1%,/
CN(C)S(=O)(=O)c1ccc(C(=O)NCC2(N3CCCCC3)CCCCC2)cc1,-13.6%,0.5%,/,-2.1%,-3.6%,/,0.3%,-0.2%
COc1ccc(C(=O)NNC2=CC(=O)CC(C)(C)C2)cc1OC,20.4%,-4.8%,-0.7%,0.1%,-11.6%,10.0%,8.8%,-6.8%
CCCC/C(O)=C1\C(=O)CC(C)(C)CC1=Nc1ccc(N)cc1,3.1%,1.8%,/,-3.3%,3.3%,/,-5.5%,15.7%[46.1 µM]
Cc1cccc(Cc2cnc(NC(=O)C3=NCCN3)s2)c1,-19.3%,-4.4%,/,5.7%,11.5%,/,-1.1%,?
CC(=O)Nc1ccc(NS(=O)(=O)c2cccc3ccccc23)cc1,2.8%,4.9%,-1.2%,6.2%,47.3%[activator],-5.1%,-2.1%,-3.4%
CC(C)c1ccc(NC(=O)Cn2c(=O)n(Cc3nc(-c4ccccc4)no3)c(=O)c3cc4c(cc32)OCO4)cc1,/,/,-0.2%,21.9%[46.1 µM],-4.7%,12.6µM*,/,/
CCCc1c(O)nc(SCCN(CCC)CCC)[nH]c1=O,23.3%,3.8%,3.7%,21.2%,2.3%,-10.8%,2.5%,8.0%
CSc1ncc(Cl)c(C(=O)Nc2cc(C)ccc2C)n1,-12.6%,0.1%,/,/,-21.5%,/,0.0%,/
Cc1cc(NC(=O)c2ccccc2F)on1,-3.8%,3.0%,0.0%,-2.0%[46.1 µM],39.6%[activator],6.0%,14.3%,?
CCOC(=O)c1cnn(-c2cccc(Cl)c2)c1N,-0.6%[3.69 µM],-3.3%,1.7%,-9.7%,5.7%,3.2%,-12.0%,?
CCCCC(=O)Nc1ccc(NC(=O)c2ccco2)cn1,1.4%,-4.4%,/,-8.7%,68.8%[activator],/,-5.3%,?
Cc1cc(C)c(NC(=O)Cn2cnc3c(oc4ccccc43)c2=O)c(C)c1,2.3%,-1.4%,-0.7%,-0.3%,27.3%&0.6%,2.5%,/,-10.0%&-10.0%
CN(C(=O)COC(=O)c1ccc2c(c1)OCCO2)c1ccccc1,54.0%,-2.1%,/,21.2%,47.1%[activator],/,-7.0%,?
CCC(Sc1nc2cc3c(cc2c(=O)n1Cc1ccco1)OCO3)C(=O)Nc1ccccc1OC (stereo not drawn),0.7%[3.69 µM],-9.2%,3.9%,12.5%,-3.9%,-56.2%,-26.9%,0.4%&3.2%
CC(=O)c1c(NCc2ccccc2)nc(=O)n(-c2ccccc2)c1C,-2.6%,1.1%,1.5%,?,28.0%,?,-7.5%,12.4%
COc1cccc(NC(=O)COC(=O)Cc2ccc(Cl)cc2)c1,-7.0%,-3.7%,/,17.3%[46.1 µM],-6.8%,/,/,23.9%[46.1 µM]
CN(C)S(=O)(=O)c1ccc(NC(=O)CSc2nnc(-c3ccco3)n2N)cc1,20.4%,3.1%,/,0.7%[46.1 µM],-2.2%,/,/,1.0%[46.1 µM]
Brc1ccc(-c2csc(N/N=C/c3cccnc3)n2)cc1,15.4%,12.8%,/,-0.4%[46.1 µM],-24.3%,/,/,-24.4%[46.1 µM]
O=C(NC1CCCC1)c1ccc2c(c1)N(Cc1ccccc1Cl)C(=O)c1ccccc1S2,/,/,-0.4%,-2.3%[46.1 µM],-6.2%,?,/,/
Cc1nc(SCC(=O)Nc2cc(C)on2)c2c(=O)n(C)c(=O)n(C)c2n1,-0.8%,-2.2%,3.0%,/,0.0%,-8.9%,-81.1%,/
COc1cccc(C(=O)Cn2c(N3CCOCC3)nc3c2c(=O)n(C)c(=O)n3C)c1,-3.1%,-13.9%,1.3%,-0.3%,18.1%,-5.2%,3.6%,?
CCOCCc1nnc(NC(=O)C2CCN(C(=O)c3ccco3)CC2)s1,10.3%,1.0%,/,18.7%[46.1 µM],30.7%[activator],/,6.6%,6.5%&6.5%[46.1 µM]
O=C(O)c1cccc2c1C(=O)c1cccc3snc-2c13,-11.4%,0.8%,/,8.6%,53.2%[activator],/,0.2%,10.6%
O=C1CCNc2cc3ccccc3cc21,-7.8%,-1.9%,-21.8%,-4.1%,-5.0%,-23.6%,?,0.1%
COc1ccc(N(CC(=O)NCC2CCCO2)C(=O)CCC(=O)Nc2nccs2)c(OC)c1 (stereo not drawn),16.7%,4.0%,/,?,-8.4%,/,5.7%,25.3%[46.1 µM]
CCn1c(-c2ccco2)nc2ccccc21,-4.0%,-16.9%,-3.2%,1.7%,51.1%[activator],-7.5%,-18.2%,-24.2%[46.1 µM]
Cc1cccc(N2CCN(C(=O)CSc3ccsc3[N+](=O)[O-])CC2C)c1 (stereo not drawn),3.6%,-13.1%,-14.4%,-11.0%,?,-26.1%,14.6%,-5.4%
